Assay outcomes from PubChem BioAssay.
CtBP-E1A blk = CtBP/E1A binding inhibition | AlphaScreen GST-E1A/His-CtBP binding, 1536-well; hits give low values; control for the full effect not named in the record | activity change, % (concentration not given with the values) | hit rate 0.49% among 340,000 | AID 651724; in the data active means activity change below about -65%; inconclusive means about -30% to -65%; inactive means above about -30%; note: % is set by controls: 0 for no effect and ±100 for the full control effect
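Protein mix (5X: 125 nM each GST-E1A, His-CtBP) was incubated with pinned compound 2 h at 37 deg C in dark, in 50 mM Tris pH 8.0 buffer with 300 mM NaCl. Glutathione donor and nickel acceptor beads followed; AlphaScreen signal read after 1 h.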
D2 agonist = human D2 receptor agonism in beta-arrestin assay; P14416; DiscoveRx PathHunter D2 beta-arrestin, luminescence, 90 min; 100% = 57 uM dopamine signal; activation, % (concentration not given with the values); hit rate 0.084% among 360,000; AID 624465; in the data active = activation above about 40%; inconclusive = about 15% to 40%; inactive = below about 15%; note: compound concentration not given in the record; the text of the record calls up to 30% inactive
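Agonist mode: compounds alone added to overnight-plated D2 PathHunter cells for 90 min at 37 C, with 57 uM final dopamine (EC100) defining full response. Beta-arrestin recruitment detected by chemiluminescent reagent, read after 1 h at ambient temperature.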
Sfp PPTase inh = inhibitors of Bacillus subtilis Sfp phosphopantetheinyl transferase | Q9F4F7 | Biochemical Sfp PPTase activity, qHTS | Potency, µM, without a hit: max response, negative = inhibition, hits mostly inhibitors | hit rate 3.5% among 310,000 | AID 1490; active = well fitted inhibition curve with a large enough effect; inconclusive = small, poorly fitted or top-dose-only effect, or another doubt; inactive = no such curve, though single readings can be large or run the other way;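 note: the enzyme is Sfp with the accession as filed and its product quenches rhodamine fluorescence; potency is the fitted concentration of half-maximal effect; 0% = enzyme reaction without inhibitor and -100% = no enzyme wells; top concentration of the series not given in the record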
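Fluorescence-quenching assay with 15 nM Sfp, 5 uM rhodamine-CoA and 12.5 uM BHQ-2-labelled ybbR peptide in pH 7.6 Hepes/MgCl2 buffer. Enzyme was pre-incubated with compound for 15 min at room temperature. Rate was taken from the 30-min fluorescence change (525/598 nm).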
TRPV1 PAM = human TRPV1 potentiation. Q8NER1. TRPV1-expressing cells, Fluo-8 calcium influx, capsaicin EC20 potentiation; host cell line not named in the record; control for the full effect not named in the record. potentiation, % at 8.33 µM. hit rate 0.02% among 320,000. AID 540277; active means potentiation above 80%; inconclusive means 30% to 80%; inactive means below 30%; note: 0% is about no effect
Target sequence (Q8NER1 whole entry, looked up): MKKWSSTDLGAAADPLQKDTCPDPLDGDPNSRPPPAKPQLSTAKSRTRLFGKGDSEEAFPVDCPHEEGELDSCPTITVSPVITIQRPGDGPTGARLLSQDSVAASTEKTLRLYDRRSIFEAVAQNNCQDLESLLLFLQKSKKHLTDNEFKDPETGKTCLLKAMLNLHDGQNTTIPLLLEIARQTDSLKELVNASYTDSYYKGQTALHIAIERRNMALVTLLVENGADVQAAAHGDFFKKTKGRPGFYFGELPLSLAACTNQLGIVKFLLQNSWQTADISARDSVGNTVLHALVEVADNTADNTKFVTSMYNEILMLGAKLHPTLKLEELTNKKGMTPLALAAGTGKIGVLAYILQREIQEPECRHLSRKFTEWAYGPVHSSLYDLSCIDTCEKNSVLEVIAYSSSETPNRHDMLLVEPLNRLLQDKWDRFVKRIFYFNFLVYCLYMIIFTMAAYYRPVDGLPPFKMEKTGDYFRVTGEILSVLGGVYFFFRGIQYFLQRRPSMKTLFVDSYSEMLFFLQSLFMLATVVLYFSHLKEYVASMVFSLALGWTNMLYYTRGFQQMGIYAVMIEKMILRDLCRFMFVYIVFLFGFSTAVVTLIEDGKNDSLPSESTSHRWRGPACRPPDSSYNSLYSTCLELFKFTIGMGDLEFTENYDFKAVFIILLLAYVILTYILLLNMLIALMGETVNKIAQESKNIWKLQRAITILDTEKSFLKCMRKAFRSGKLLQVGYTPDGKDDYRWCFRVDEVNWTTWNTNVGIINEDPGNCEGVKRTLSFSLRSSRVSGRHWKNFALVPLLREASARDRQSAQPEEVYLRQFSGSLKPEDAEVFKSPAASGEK
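TRPV1-expressing cells were cultured overnight at 35.5C and loaded with Fluo-8 calcium dye for 40 to 90 min at room temperature. After a 10 s baseline, compound was added and calcium influx was read kinetically for 3 min (ex 480/em 520 nm).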
D2 PAM = potentiates the human D2 dopamine receptor allosterically; potentiation, % (no concentration beside the values); AID 624464; P14416; hit rate 0.23% among 360,000; DiscoveRx D2 beta-arrestin cells, luminescence, 90 min; 100% = 57 uM dopamine signal; active = potentiation of 50% or more; inconclusive = 30% to 50%; inactive = 30% or less;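 note: compound concentration not given in the record; tested on top of an EC20 dose of dopamine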
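D2 cells co-treated with compound plus 50 nM dopamine (EC20) for 90 min at 37 deg C to detect potentiation. Beta-arrestin recruitment was read as enzyme-fragment luminescence after 1 h at ambient temperature. Full response was set by 57 uM dopamine.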
PINK1 modulator = modulators of PINK1 expression. PINK1 immunofluorescence, high-content cytometry, 24 h. Potency, µM (doses to about 76.6 µM), without a hit: top-dose activation (PINK1 increase), actives largely listed as activators. hit rate 0.2% among 410,000; active = well fitted activation curve with a large enough effect; inconclusive = small, poorly fitted or top-dose-only effect; inactive = flat fitted curve, though single readings scatter; cell line not stated here;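 note: potency is the fitted concentration of half-maximal effect; % of control where 0% means no effect; nearly all actives have a fitted effect of over 65% in size; a mitochondrial uncoupler was the plate control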
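Cells are seeded, rested 12 hours, then given compound at five concentrations or DMSO for 24 hours. After fixation, blocking and antibody staining, PINK1 amount and mitochondrial localization are scored; CCCP serves as control.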
Six1-Eya2 inh = Six1/Eya2 interaction inhibition | Q15475+O00167 | AlphaScreen GST-Six1/His-Eya2 binding, biochemical; hits give low values; control for the full effect not named in the record | activity change, % (test concentration not listed) | hit rate 0.56% among 360,000 | AID 651725; in the data active = activity change below about -65%; inconclusive = about -30% to -65%; inactive = above about -30%; note: % is set by controls: 0 for no effect and ±100 for the full control effect; compound concentration not given in the record
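AlphaScreen luminescence read after one hour at 37 °C in darkness. Pin-transferred compounds met GST-Six1 and His-Eya2 protein (5X stock 250 nM/500 nM) plus glutathione donor and Ni-chelate acceptor beads (5X, 50 ug/mL).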
The depositor's hits bear a star; & = joins results of further samples; [ ] = another dose, or the depositor's remark.

How did Cc1ccc(CNC(=O)c2cccc3c2C(=O)c2ccc(N4CCCCC4)cc2S3(=O)=O)cc1 do in these assays?
CtBP-E1A blk: -12.6; D2 agonist: 3.0; TRPV1 PAM: 0.5; D2 PAM: -10.5; PINK1 modulator: 1.2%; Six1-Eya2 inh: 21.9

How did CC(C)CC(c1nnnn1Cc1ccccc1)N1CCC(C(N)=O)CC1 (stereo not drawn) do in these assays?
CtBP-E1A blk: 4.2; D2 agonist: 8.3; Sfp PPTase inh: 21.5%; TRPV1 PAM: 4.0; D2 PAM: 13.9; PINK1 modulator: -0.8%; Six1-Eya2 inh: 3.2

How did O=C(Nc1ccc(F)cc1)c1c(Cl)nc2ccccn12 do in these assays?
CtBP-E1A blk: -0.4; D2 agonist: -4.7; Sfp PPTase inh: 13.0%; TRPV1 PAM: -1.6; D2 PAM: 0.1; PINK1 modulator: 1.9%; Six1-Eya2 inh: -5.1

Results for N#CCCN1CCN(Cc2ccccc2)CCC1=O ?
CtBP-E1A blk: 6.1; D2 agonist: -4.1; Sfp PPTase inh: 15.4%; TRPV1 PAM: 7.5; D2 PAM: -2.7; PINK1 modulator: 1.1%; Six1-Eya2 inh: -2.5

Results for COCCNC(=O)COc1ccccc1Cl ?
CtBP-E1A blk: -1.7; D2 agonist: -0.1; Sfp PPTase inh: 5.5%; TRPV1 PAM: 6.6; D2 PAM: 10.3; PINK1 modulator: 0.1%; Six1-Eya2 inh: 6.6

Results for COc1cccc(N2CCN(c3ccc4nnc(CCC(=O)N5CCN(C)CC5)n4n3)CC2)c1 ?
D2 agonist: 8.1; Sfp PPTase inh: 5.3%; TRPV1 PAM: 5.7; D2 PAM: -4.6; PINK1 modulator: 0.8%; Six1-Eya2 inh: -4.7

How did O=C(Nc1ccccc1)N1CCCN(c2nccc(C(F)(F)F)n2)CC1 do in these assays?
CtBP-E1A blk: 4.4; D2 agonist: 2.7; Sfp PPTase inh: 14.7%; TRPV1 PAM: -4.3; D2 PAM: -2.8; PINK1 modulator: -1.9%; Six1-Eya2 inh: -3.5

What do the screens show for `CN(CC(=O)Nc1ccc(F)c(F)c1F)C(=O)CC1CCCCC1`?
CtBP-E1A blk: -17.4; D2 agonist: -6.0; TRPV1 PAM: -21.8; D2 PAM: -9.7; PINK1 modulator: -1.9%; Six1-Eya2 inh: 11.4

Results for CCc1ccccc1NC(=O)COC(=O)C1CC(=O)N(c2ccc(F)cc2)C1 (stereo not drawn) ?
CtBP-E1A blk: 1.3; D2 agonist: -2.4; Sfp PPTase inh: 5.1%; TRPV1 PAM: 10.0; D2 PAM: -2.9; PINK1 modulator: 4.2%[38.3 µM]; Six1-Eya2 inh: 4.4

Results for O=C(NCc1ccco1)c1cc(C(=O)C2CCCCC2)c[nH]1 ?
CtBP-E1A blk: 2.5; D2 agonist: -4.3; Sfp PPTase inh: 18.1%; TRPV1 PAM: 3.8; D2 PAM: 2.2; PINK1 modulator: 3.6%[38.3 µM]; Six1-Eya2 inh: 4.3

How did CNc1nc(Oc2ccc(=O)n(C)n2)nc(N2CCOCC2)n1 do in these assays?
CtBP-E1A blk: 1.7; D2 agonist: -1.2; Sfp PPTase inh: -7.3%; TRPV1 PAM: 2.4; D2 PAM: -18.1; PINK1 modulator: 6.7%&-0.9%; Six1-Eya2 inh: 1.6

What do the screens show for `Cc1cc(=O)n2c3ccccc3n(CC(O)CN3CCCC3)c2c1C#N` (stereo not drawn)?
CtBP-E1A blk: 5.9; D2 agonist: 0.7; Sfp PPTase inh: 9.2%; TRPV1 PAM: -4.2; D2 PAM: 13.8; Six1-Eya2 inh: 0.3

Results for CCCN(CCC)Cc1c(C(=O)N/N=C/c2ccc(Br)cc2)nnn1-c1nonc1N ?
CtBP-E1A blk: -13.9; D2 agonist: 3.9; Sfp PPTase inh: -6.1%; TRPV1 PAM: -12.8; D2 PAM: -2.7; PINK1 modulator: inconclusive; Six1-Eya2 inh: -4.9

How did CC(=O)Nc1ccc(NC(=O)N(c2ccccc2)c2ccccc2)cc1 do in these assays?
D2 agonist: -1.4; Sfp PPTase inh: 4.1%; TRPV1 PAM: 2.9; D2 PAM: 0.6; PINK1 modulator: 1.4%; Six1-Eya2 inh: 6.5

What do the screens show for `COc1ccc(OC2OC3COC(c4ccco4)OC3C(O)C2NC(C)=O)cc1` (stereo not drawn)?
CtBP-E1A blk: 1.2; D2 agonist: -3.5; Sfp PPTase inh: 20.6%; TRPV1 PAM: -3.0; D2 PAM: -4.9; PINK1 modulator: 0.6%; Six1-Eya2 inh: 9.6

What do the screens show for `Cc1cc(C)c(NC(=O)CS(=O)CC(=O)N2CCN(c3ccccc3)CC2)c(C)c1` (stereo not drawn)?
CtBP-E1A blk: 0.6; D2 agonist: 0.4; Sfp PPTase inh: -8.3%; TRPV1 PAM: 21.2; D2 PAM: -3.5; PINK1 modulator: inconclusive; Six1-Eya2 inh: 0.1

How did COc1ccc(C(=O)O)cc1S(=O)(=O)Nc1ccc2cn[nH]c2c1 do in these assays?
CtBP-E1A blk: 6.4; D2 agonist: -1.2; D2 PAM: 6.1; PINK1 modulator: 0.2%; Six1-Eya2 inh: 3.1

What do the screens show for `COc1ccccc1C(=O)NC(=O)COC(=O)c1nc(Cl)ccc1Cl`?
CtBP-E1A blk: -8.8; D2 agonist: -3.9; TRPV1 PAM: -1.2; D2 PAM: -13.5; PINK1 modulator: -0.1%; Six1-Eya2 inh: 7.3

What do the screens show for `COc1ccc(-c2ccc(CCC(=O)O)n2C(C)C)cc1`?
CtBP-E1A blk: -7.2; D2 agonist: -0.4; Sfp PPTase inh: 11.2%; TRPV1 PAM: 4.6; D2 PAM: 12.7; Six1-Eya2 inh: -9.1

How did COc1ccccc1OCCC(=O)OCC(=O)Nc1cccc(Br)c1 do in these assays?
CtBP-E1A blk: 4.4; D2 agonist: -2.3; Sfp PPTase inh: -0.7%; TRPV1 PAM: 14.7; D2 PAM: -0.6; PINK1 modulator: -2.9%; Six1-Eya2 inh: 0.0

How did CC12CCC3C(CCC4N(CCO)CCC34C)C1CCC2O (stereo not drawn) do in these assays?
CtBP-E1A blk: 0.4; D2 agonist: -3.4; Sfp PPTase inh: -3.7%; TRPV1 PAM: 5.7; D2 PAM: -4.8; PINK1 modulator: -2.6%; Six1-Eya2 inh: -1.8

Results for O=C(Nn1cnc2ccccc2c1=O)c1ccc(Cl)c([N+](=O)[O-])c1 ?
CtBP-E1A blk: -0.1; D2 agonist: -4.7; Sfp PPTase inh: 11.5%; TRPV1 PAM: 4.2; D2 PAM: -10.8; PINK1 modulator: 2.7%; Six1-Eya2 inh: -17.6

How did Cc1ccc(F)c(C2=CC(=O)C[C@H](c3ccc(F)cc3)C2)c1 do in these assays?
CtBP-E1A blk: -1.4; D2 agonist: -1.7; TRPV1 PAM: -11.1; D2 PAM: -12.2; PINK1 modulator: 0.8%; Six1-Eya2 inh: 20.4

What do the screens show for `CO/N=C/NC(=O)C1=NOC(CNc2ncc(C(F)(F)F)cc2Cl)C1` (stereo not drawn)?
CtBP-E1A blk: 2.8; D2 agonist: -1.4; Sfp PPTase inh: -5.2%; TRPV1 PAM: -16.0; D2 PAM: -12.9; PINK1 modulator: 0.4%; Six1-Eya2 inh: 2.0

How did Cc1cc(C(=O)Cn2nnc(-c3ccc(Cl)cc3)n2)c(C)n1-c1ccccc1 do in these assays?
CtBP-E1A blk: -20.2; D2 agonist: 2.7; Sfp PPTase inh: 18.4%; TRPV1 PAM: 2.5; D2 PAM: 15.9; PINK1 modulator: -0.3%; Six1-Eya2 inh: -10.6

What do the screens show for `O=C(COC(=O)C1=NN(c2ccccc2)C(=O)CC1)Nc1ccc([N+](=O)[O-])cc1C(F)(F)F`?
D2 agonist: 9.5; TRPV1 PAM: 8.0; D2 PAM: 10.3; PINK1 modulator: 2.0%; Six1-Eya2 inh: 3.2

How did CCOc1cc(C(=O)N2CCCN(C)CC2)cc(OCC)c1OCC do in these assays?
CtBP-E1A blk: -19.0; D2 agonist: 5.9; Sfp PPTase inh: 6.1%; TRPV1 PAM: 9.6; D2 PAM: -5.0; PINK1 modulator: -0.7%; Six1-Eya2 inh: 25.8

What do the screens show for `Cc1c(NC(=O)C(C)OC(=O)CCC2CCCC2)c(=O)n(-c2ccccc2)n1C` (stereo not drawn)?
CtBP-E1A blk: 5.3; D2 agonist: -5.8; Sfp PPTase inh: 5.5%; TRPV1 PAM: 4.1; D2 PAM: -2.1; PINK1 modulator: 2.7%; Six1-Eya2 inh: 5.7

How did COc1ccccc1CC(NC(C)=O)C(=O)NC1CCN(C(=O)Nc2ccc(F)cc2)CC1 (stereo not drawn) do in these assays?
CtBP-E1A blk: 10.2; D2 agonist: 0.2; Sfp PPTase inh: 18.8%; TRPV1 PAM: 0.5; D2 PAM: -5.4; PINK1 modulator: 1.7%; Six1-Eya2 inh: 6.7

Results for CCc1noc(C)c1C(=O)NCCc1ccc(S(N)(=O)=O)cc1 ?
CtBP-E1A blk: 18.4; D2 agonist: -3.7; TRPV1 PAM: -12.7; D2 PAM: -3.2; PINK1 modulator: -0.6%; Six1-Eya2 inh: 2.5

Results for COC(CC(=O)NNC(=S)Nc1ccccc1)OC ?
CtBP-E1A blk: -10.3; D2 agonist: 0.6; Sfp PPTase inh: 16.8%; TRPV1 PAM: -3.8; D2 PAM: -9.9; PINK1 modulator: -0.1%; Six1-Eya2 inh: -2.0

How did COC(=O)c1ccc(CSc2ccccc2C)o1 do in these assays?
CtBP-E1A blk: 16.4; D2 agonist: -2.8; Sfp PPTase inh: 17.7%; TRPV1 PAM: -16.4; D2 PAM: -0.9; PINK1 modulator: 10.4%[38.3 µM]; Six1-Eya2 inh: 9.3

How did CC1CC(C(=O)Nc2ccccc2)C(=O)O1 (stereo not drawn) do in these assays?
CtBP-E1A blk: -16.9; D2 agonist: 1.6; D2 PAM: 0.0; PINK1 modulator: 0.5%; Six1-Eya2 inh: 4.3
